# From PubChem
# RecA splice inh = Mtb RecA intein splicing inhibition | P9WHJ3 | cell-free RecA intein splicing, fluorescence | inhibition, %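 (about 9 µM by stock and volumes)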 | hit rate 0.75% among 290,000; in the data active = inhibition above about 30%; inconclusive = no clear call, values can overlap the other calls;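 also: 0% = vehicle wells and 100% = reference inhibitor control wells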
# Target sequence (P9WHJ3 whole entry, looked up, canonical isoform): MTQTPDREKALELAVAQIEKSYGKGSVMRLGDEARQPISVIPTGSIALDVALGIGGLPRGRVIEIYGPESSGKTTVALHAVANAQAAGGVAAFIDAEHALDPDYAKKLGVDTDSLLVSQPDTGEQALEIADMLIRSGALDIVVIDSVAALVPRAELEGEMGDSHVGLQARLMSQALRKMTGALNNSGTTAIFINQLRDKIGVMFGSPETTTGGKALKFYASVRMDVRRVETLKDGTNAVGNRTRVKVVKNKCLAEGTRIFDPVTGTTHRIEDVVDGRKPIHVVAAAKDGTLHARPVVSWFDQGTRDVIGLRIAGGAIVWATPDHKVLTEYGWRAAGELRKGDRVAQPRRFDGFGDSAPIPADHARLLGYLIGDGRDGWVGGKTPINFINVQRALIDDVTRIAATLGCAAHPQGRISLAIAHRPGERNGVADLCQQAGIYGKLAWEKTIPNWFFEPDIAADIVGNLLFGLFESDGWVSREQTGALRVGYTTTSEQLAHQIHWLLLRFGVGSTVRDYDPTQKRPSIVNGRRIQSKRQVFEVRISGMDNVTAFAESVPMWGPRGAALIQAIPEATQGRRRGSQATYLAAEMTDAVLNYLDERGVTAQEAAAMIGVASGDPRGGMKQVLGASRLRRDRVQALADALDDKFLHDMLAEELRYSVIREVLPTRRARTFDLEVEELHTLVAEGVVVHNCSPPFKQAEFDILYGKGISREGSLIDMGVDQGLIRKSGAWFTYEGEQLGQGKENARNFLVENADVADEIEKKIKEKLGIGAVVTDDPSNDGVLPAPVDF
# Mtb bLac sens = beta-lactam sensitization of Mtb H37Rv | M. tuberculosis H37Rv growth with meropenem, percent inhibition; hits of this screen are not shown here | AID 434955 | hit rate 0.27% among 330,000 | inhibition, % at 25 µM;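 active = about 74% or more and at least 40 points above the plate without the antibiotic, then above 30% in a dose series; inconclusive = first-round hits that could not be retested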;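 also: growth measured after seven days incubation then overnight dye step; 0% = bacteria only wells and 100% = bacteria with antibiotic; twin plates without the antibiotic show which effects depend on it; some results filed as inactive read as strong as hits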
# Mtb growth = M. tuberculosis H37Rv growth inhibitors, H37Rv strain (AID 1626). inhibition, % at 10 µM; hits with a dose series show IC50 in µM. M. tuberculosis H37Rv growth inhibition; higher % means a stronger effect. hit rate 0.95% among 220,000;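 active = confirmed in a dose series; inconclusive = inhibition above 80% but not taken into the dose series; inactive = below 80% or under 30% at every dose of the series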;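 also: bacteria incubated seven days before Alamar blue readout; 0% = bacteria only wells and 100% = bacteria with antibiotic wells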
# Arbovirus inh = antivirals against arbovirus infection | arbovirus infection cell-based antiviral screen | AID 1251 | inhibition, % at 10 µM | hit rate 0.37% among 200,000;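 active = inhibition from about 30%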;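 also: bluetongue infection of BSR cells; cell survival read as ATP light after 72 h; 0% = infected wells without compound and 100% = uninfected wells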
# YopH PTP inh = blocks Yersinia enterocolitica YopH tyrosine phosphatase. fluorescence Ex485/Em525. inhibition, %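 (about 10 µM by stock and volumes)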. hit rate 0.16% among 140,000;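 active = inhibition of 50% or more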;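 also: controls were vehicle for no effect and minimum signal wells for full effect; inactives centre near -20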
# * = called active by the depositor; ? = inconclusive; / = not tested or not shown.
molecule | Mtb bLac sens | Arbovirus inh | Mtb growth | YopH PTP inh | RecA splice inh
CCCN1CN(CCc2ccccc2)CNC1=S | 8 | 15 | 3% | -20 | -2.7
CCOc1ccc(Br)cc1S(=O)(=O)N1CCCC1 | -4 | -4 | 7% | -15 | -0.8
O=C(COc1ccc(Cl)cc1Cl)N/N=C1\CCCc2ccccc21 | -9 | 3 | -1% | -22 | 0.0
CCCC(=O)Nc1ccccc1NC(=O)CCC | 1 | 9 | -7% | -11 | 1.0
CC(=O)c1ccc(OCCCC(=O)N2CCN(S(=O)(=O)c3ccc(C)cc3C)CC2)cc1 | -11 | / | / | / | 0.3
C#CCNC(=O)C1=C[C@H](c2ccccc2)[C@@H](CCCO)[C@H](OCC)O1 | 9 | 1 | -10% | / | 0.4
CC(C)(C)c1ccc(OCC(=O)NNC(=S)NC(=O)c2ccccc2[N+](=O)[O-])c(Br)c1 | 9 | -11 | -7% | -23 | 1.9
CCN(CC)S(=O)(=O)c1ccc(OC)c(NC(=O)CSc2cc(C)ccc2C)c1 | 15 | 3 | 4% | -16 | -1.2
Cc1nc2sc(C(c3ccccc3)N3CCN(C(=O)c4ccco4)CC3)c(O)n2n1 (configuration not stated) | -4 | -1 | 3% | -27 | -0.7
O=C(COC(=O)CNC(=O)c1cccc([N+](=O)[O-])c1)Nc1cccc(S(=O)(=O)N2CCCCC2)c1 | 1 | 4 | -2% | 1 | -0.7
COc1ccc(/C=C2\SC(=O)N(CCC(=O)NC3CCS(=O)(=O)C3)C2=O)cc1 (configuration not stated) | -7 | / | / | / | 0.4
O=C(O)c1ccc(-c2ccc(Cl)cc2Cl)o1 | -2 | 3 | 2% | -76 | -2.0
O=C1c2ccccc2C2(c3ccc(F)cc3)NCCN12 (configuration not stated) | 0 | 6 | -1% | / | 0.4
COc1ccccc1-n1cnc2cc(C(=O)NCC3CCCO3)ccc21 (configuration not stated) | 0 | -1 | 5% | -19 | -0.3
COc1cccc(C(=O)NCCS(=O)(=O)N2CCN(C(=O)c3ccco3)CC2)c1 | 4 | / | / | / | -0.7
C=CCOc1ccc(CNc2ccc(NC(=O)CCC)cc2)cc1OCC | 1 | 8 | -2% | -15 | -3.3
CN(C)NC(=S)NC1(C)CCS(=O)(=O)C1 (configuration not stated) | -8 | / | -8% | / | 5.0
CC(C)OC(=O)c1c(F)c(F)c(N2CCOCC2)c(F)c1F | -3 | 0 | 0% | -47 | -0.8
CCCCN1C(=O)CC(Sc2ncccc2C(=O)O)C1=O (configuration not stated) | 1 | -3 | 3% | / | -2.0
CCOC(=O)c1cc2c(ccn2C)n1CC(=O)N1CCN(c2ccccc2)CC1 | -2 | 3 | -3% | -50 | 1.3
CCC1=Nc2cc(C(=O)O)ccc2Sc2ccc(Cl)cc21 | 5 | 17 | / | -40 | 4.3
Cc1cccc(C(=O)Nc2ccc3c(c2)C(=O)NC3=O)c1 | 3 | / | / | / | -1.9
COc1ccc2[nH]c(C(=O)O)c(CCNC(=O)/C=C/c3ccc(O)c(OC)c3)c2c1 | -4 | / | / | / | 1.2
N#CCOC(=O)c1c2c(nc3ccccc13)CCC2 | -1 | 10 | -2% | / | 4.0
NC1=NC[C@@H](Cc2ccc(O)cc2)N1CCc1cccc2ccccc12 | -1 | / | 13% | / | 1.5
CCCCOc1ccc(Cc2n[nH]c(=S)n2N)cc1 | 15 | 0 | 10% | -19 | 7.6
CCc1ccc(OCc2nnc(SCC(=O)NC3CCCCC3)o2)cc1 | -7 | / | / | / | 18
CC(C)=C1SC(N2CCN(c3cccc(Cl)c3)CC2)=NC1=O | -6 | -20 | 4% | -21 | 11
CC(=O)Nc1cccc(C(=O)OC(C)C(=O)NC2CCCc3ccccc32)c1 (configuration not stated) | -7 | / | / | / | -1.8
O=c1ccc(-c2ccccc2)nn1Cc1ccc(F)cc1Cl | 0 | / | / | / | 11
CCOC(=O)C1=C(CC)OC(N)=C(C#N)C1c1ccc(OC)cc1OC (configuration not stated) | 2 | 0 | -2% | -18 | -5.7
COc1ccccc1NC(=O)CN1CCN(C(=O)c2ccco2)CC1 | -13 | 2 | -6% | -20 | -0.6
COc1ccc(OCc2nnc(SC3CCOC3=O)n2-c2ccccc2)cc1 (configuration not stated) | 5 | -4 | -5% | -10 | -0.3
Cc1ccc2[nH]c(C)c(CCN(Cc3cccnc3)C(=S)NC(C)(C)C)c2c1 | -8 | / | / | / | 4.3
NC1=NC(=O)/C(=C/c2cn(CCC(=O)O)nc2-c2ccc(Cl)cc2)S1 | 1 | -10 | -12% | -39 | 2.7
COCCNCC(O)CON=C1c2ccccc2-c2ccccc21 (configuration not stated) | 18 | -25 | 5% | / | 5.8
C=CCN(CC(=O)NCc1ccccc1)C(=O)c1csnn1 | 4 | 6 | -8% | -39 | -2.2
O=C(NCc1ccccc1)C1CCCN(S(=O)(=O)c2ccc(Br)cc2)C1 (configuration not stated) | 2 | / | / | / | 2.4
Cc1cccc(N(C(=O)Cn2nnc(-c3ccccc3F)n2)C(C(=O)NC(C)(C)C)c2ccncc2)c1 (configuration not stated) | -3 | -4 | 3% | / | -0.3
O=C(c1ccco1)N1CCN(C(=O)C2CCN(S(=O)(=O)Cc3ccccc3)CC2)CC1 | -1 | -8 | 4% | -12 | -0.3
Cc1ccc(Nc2cc(C)nc(NCc3ccccc3)n2)cc1 | 100 | -38 | 6.7µM* | -13 | 7.4
O=C(N/C(=C/c1cccnc1)C(=O)N1CCOCC1)c1ccccc1Br | 8 | -10 | -8% | -24 | -1.5
CCOC(=O)CN1CC23C=CC(O2)C(C(=O)NCCc2ccccc2)C3C1=O (configuration not stated) | -4 | 5 | -6% | -27 | 0.2
c1ccc2c(c1)nc(Nc1ccc3c(c1)OCO3)c1nnnn12 | -11 | -11 | 8% | -18 | -4.6
CC(C/C=N/NC(=O)COc1cc(Cl)ccc1Cl)c1ccccc1 (configuration not stated) | 6 | -9 | 1% | -37 | 3.6
O=C(c1cccnc1)C1Cc2ccccc2C1=O (configuration not stated) | -1 | / | -5% | / | 4.5
CCOC(=O)CN(c1cccc(C(C)=O)c1)S(C)(=O)=O | 0 | 3 | 4% | -10 | /
O=c1c2ccccc2ncn1-c1ccccc1[N+](=O)[O-] | -8 | / | / | / | -1.4
CCOc1ccc2nc(SCC(=O)Nc3nonc3C)[nH]c2c1 | / | -3 | -1% | / | 0.2
CCn1c(C)nnc1SCC(=O)Nc1ccc(C(C)=O)cc1 | -12 | / | / | / | 0.7
C=CCn1cc(/C=N\NC(=O)c2cc3c(ccc4ccccc43)o2)c2ccccc21 | 89 | -1 | 18% | -29 | -19
O=C(CCc1ccc(S(=O)(=O)N2CCOCC2)cc1)N/N=C/c1cccc(O)c1 | -6 | -3 | -3% | -26 | -0.5
O=C(NCC(Cl)c1ccc2ccccc2c1)c1c(F)cccc1F (configuration not stated) | 10 | / | / | / | -4.1
O=C(Cn1c(=O)n(CCC(=O)N2CCCCC2)c(=O)c2sccc21)NCc1ccccc1 | 2 | / | / | / | 0.7
Cc1ccc(C)c(OCC(=O)N/N=C/c2c(C)nn(-c3ccccc3)c2Cl)c1C | 8 | -16 | 0% | -24 | 0.4
CCSc1nnc(N)s1 | -14 | 8 | -6% | -42 | 6.6
Cc1c(Cl)cccc1NC(=O)CN1CCN(CCO)CC1 | 1 | -5 | -5% | -23 | -0.7
CCOC(=O)/C(C#N)=C/c1cc2ccccc2nc1N1CCOCC1 | 2 | -4 | 14% | -34 | 0.2
Cc1cccc2nc(-c3ccccc3)nc(N3CCC(O)(c4ccc(Cl)cc4)CC3)c12 | 98 | -7 | ? | -5 | 10
O=C(Oc1ccc2c(c1)O/C(=C\c1ccncc1)C2=O)c1ccccc1 | 16 | 10 | -1% | -23 | 0.2

# Full records, quoted from the list. Order of values: Mtb bLac sens, Arbovirus inh, Mtb growth, YopH PTP inh, RecA splice inh
# Record of Cc1cccc2nc(-c3ccccc3)nc(N3CCC(O)(c4ccc(Cl)cc4)CC3)c12 = 98, -7, ?, -5, 10
# Record of CCn1c(C)nnc1SCC(=O)Nc1ccc(C(C)=O)cc1 = -12, /, /, /, 0.7
# Record of Cc1ccc(C)c(OCC(=O)N/N=C/c2c(C)nn(-c3ccccc3)c2Cl)c1C = 8, -16, 0%, -24, 0.4
# Record of O=C(NCC(Cl)c1ccc2ccccc2c1)c1c(F)cccc1F (configuration not stated) = 10, /, /, /, -4.1
# Record of CCOc1ccc2nc(SCC(=O)Nc3nonc3C)[nH]c2c1 = /, -3, -1%, /, 0.2

# Quoted at random: 5 records from the list
molecule | Mtb bLac sens | Arbovirus inh | Mtb growth | YopH PTP inh | RecA splice inh
COc1cccc(C(=O)NCCS(=O)(=O)N2CCN(C(=O)c3ccco3)CC2)c1 | 4 | / | / | / | -0.7
COCCNCC(O)CON=C1c2ccccc2-c2ccccc21 (configuration not stated) | 18 | -25 | 5% | / | 5.8
CCN(CC)S(=O)(=O)c1ccc(OC)c(NC(=O)CSc2cc(C)ccc2C)c1 | 15 | 3 | 4% | -16 | -1.2
O=C(c1cccnc1)C1Cc2ccccc2C1=O (configuration not stated) | -1 | / | -5% | / | 4.5
C#CCNC(=O)C1=C[C@H](c2ccccc2)[C@@H](CCCO)[C@H](OCC)O1 | 9 | 1 | -10% | / | 0.4

# (listing goes on)
molecule | Mtb bLac sens | Arbovirus inh | Mtb growth | YopH PTP inh | RecA splice inh
Cn1c(CNC(=O)c2ccc(Cl)cc2)nnc1SCC(=O)NC1CCCC1 | -7 | / | / | / | 3.5
COCCn1nnnc1C(c1cccc(OC)c1OC)N1CCN(C2CCCCC2)CC1 (configuration not stated) | 5 | -2 | -3% | -39 | -1.4
COc1ccc(CCNC(=O)c2ccc(NS(=O)(=O)c3ccc4[nH]c(=O)[nH]c4c3)cc2)cc1OC | -10 | / | / | / | -0.1
Cc1cc(C)c2nc(NNC(=O)c3cc(=O)c4ccccc4o3)sc2c1 | -4 | 3 | / | / | 1.1
CCOCCCNC(=O)C(c1ccc(Cl)cc1)N(Cc1cccs1)C(=O)CNC(C)=O (configuration not stated) | 7 | 1 | 2% | -15 | -0.2
CN(C1CCCCC1)S(=O)(=O)c1cccc(C#N)c1 | 0 | 2 | 6% | / | /
O=C(O)Cc1coc(-c2ccc(F)cc2)n1 | -17 | 3 | -4% | -20 | -1.5
CNS(=O)(=O)c1ccc(CCC(=O)N2CCN(c3ccccc3OC)CC2)cc1 | -7 | / | / | / | 0.2
Cc1nc(N2CCN(C)CC2)c2sc(=S)n(C)c2n1 | -5 | 4 | 0% | -28 | -1.0
Cc1onc(NC(=O)NC(=O)c2c(F)cccc2Cl)c1Br | -14 | / | / | / | -2.0
CSC1=NC(C)(C)C=C(/C=C/c2c(Cl)cccc2Cl)N1 | 3 | -31 | 1% | / | 6.0
OC[C@@H](O)[C@@H](O[C@@H]1O[C@H](CO)[C@H](O)[C@H](O)[C@H]1O)[C@H](O)[C@@H](O)CO | 1 | / | -13% | / | -0.9
OCCN1CCN(C(=S)NCCc2ccccc2)CC1 | 4 | 6 | -3% | -24 | -0.2
CCCCn1c(N)c(N(CCOC)C(=O)CSc2nnc(-c3ccc(C(C)(C)C)cc3)n2N)c(=O)[nH]c1=O | -8 | / | / | / | 1.6
Cc1ccc(C)c(/C=C/C(=O)c2ccccc(=O)c2O)c1 | 17 | -36 | 81% | -5 | 29
CC(=O)Nc1ccc(S(=O)(=O)N2CCN(C34CC5CC(CC(C5)C3)C4)CC2)cc1 | -2 | -1 | -6% | -39 | -2.5
COC(=O)c1c(-c2cccc3ccccc23)csc1NC(=O)Cc1ccc(OC)c(OC)c1 | 0 | -14 | 5% | -12 | 5.6
N#Cc1cc2c(nc1SCC(=O)Nc1sc3c(c1C#N)CCC3)CCC2 | 17 | -3 | 10% | -3 | -0.7
Cc1oc(-c2ccccc2)cc1C(=O)Nc1cccc(C(=O)O)c1 | 10 | 7 | -5% | -8 | -1.6
CC(/C=N\N1CCN(Cc2ccc(C)cc2)CC1)=C\c1ccccc1 | -1 | -2 | 11% | -17 | -0.2
c1ccc(OCc2nn3c(Cn4nnc5ccccc54)nnc3s2)cc1 | -1 | 6 | -6% | -17 | 2.6
Cc1ccc(NC(=O)C2CCN(C(=O)c3ccc(Cl)cc3)CC2)nc1 | -10 | / | / | / | -0.7
COc1cccc(CN2CCN(C(=O)c3ccco3)CC2)c1OC | 15 | / | 0% | -12 | -0.9
O=C(c1ccc(F)cc1)c1ccc(CN2C(=O)c3ccccc3C2=O)o1 | 7 | 4 | 1% | / | 2.8
O=Cc1c(Cl)nc2ccccn2c1=O | 1 | / | -8% | / | 6.1
COc1ccc(C(=O)NCc2ccc3c(c2)OCO3)c(OC)c1 | -6 | / | / | / | -2.4
CCN(CC)C(=O)CSc1ncnc2sc(-c3ccccc3)cc12 | 13 | -14 | 4% | -26 | /
Nc1nonc1C(=O)N/N=C\c1cc2c(cc1Cl)OCO2 | -7 | / | / | / | -9.6

# Some of the compounds tested. The share of hits here may be higher or lower than overall.
